Source: PubChem
HPGD inh: blocks human HPGD enzyme activity; P15428; purified HPGD, NADH fluorescence kinetic, PGE2 substrate; Potency, µM, inactives show at the highest dose activity change, negative = inhibition, actives largely listed as inhibitors; 150,000 tested, 4.3% active; active = well fitted inhibition curve with a large enough effect (not every such curve was filed as active); inconclusive = small, poorly fitted or top-dose-only effect, or another doubt; inactive = no such curve, though single readings can be large or run the other way;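 further: top concentration of the series not given in the record; plate controls included wells without enzyme; inactives centre near -10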
Target sequence (P15428 whole entry, looked up): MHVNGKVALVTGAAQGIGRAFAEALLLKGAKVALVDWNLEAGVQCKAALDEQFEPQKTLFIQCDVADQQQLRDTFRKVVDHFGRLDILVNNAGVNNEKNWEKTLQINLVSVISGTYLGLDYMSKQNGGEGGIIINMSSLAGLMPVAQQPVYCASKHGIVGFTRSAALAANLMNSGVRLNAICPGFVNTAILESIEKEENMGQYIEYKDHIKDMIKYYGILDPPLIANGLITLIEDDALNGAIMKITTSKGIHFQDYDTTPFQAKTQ
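20 nM HPGD preincubated 15 min at room temperature with compound in 50 mM Tris-HCl pH 8, 0.01% Tween 20. Started with 1 mM NAD+ and 30 uM prostaglandin E2; NADH fluorescence (360/450 nm) read 5 times over 30-s intervals, last minus first.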
Active calls of the source: *; u = inconclusive. On the % scale 0 is the no-effect control and ±100 the full control effect; potency means the concentration at half of the fitted maximal effect. Not all compounds are listed, so the mix of outcomes need not match the whole.

SMILES	HPGD inh
COC(=O)c1cc(Br)c(=O)n(CCN(C(C)C)C(C)C)c1	-3.6%
CC(=O)Nc1ccc2oc(-c3ccccc3Br)nc2c1	u
O=C(Nc1ccc([N+](=O)[O-])cn1)C1CC1	-12.8%
O=C(NCCO)c1cccc(Cl)c1	-2.5%
COc1ccc(NC(=O)COC(=O)[C@@H]2CCCN2C(=O)c2cccs2)cc1	-0.4%
COC(=O)c1ccc(OC(=O)CCN2C(=O)C3C4c5ccccc5C(c5ccccc54)C3C2=O)cc1 (configuration not stated)	-4.0%
COc1ccc(C2SC[C@@H](C(=O)O)N2C(C)=O)cc1 (some centres not stated)	-17.4%
CCc1nnc(NC(=O)CC(CN(C)S(=O)(=O)c2ccccc2)c2ccccc2)s1 (configuration not stated)	-5.0%
CCC(C)(C)NC(=O)Cc1ccc(OC)c(OC)c1	-11.8%
O=C(Nc1nccs1)c1ccc(COc2ccc(Cl)cc2)o1	-29.3%
Cc1ccc(C2CCN(C(=O)Nc3ccccc3)C2)cc1 (configuration not stated)	-19.6%
COc1cc(/C=C/C(=O)OCC(=O)Nc2ccccc2Sc2ccc(Cl)cc2)ccc1O	u
Cc1ccc2[nH]c(=O)c(CC=C(Cl)Cl)c(C)c2c1	-6.6%
Cc1ccccc1Cn1ccc(-c2ccc3c(c2)OCO3)n1	-28.2%
Cc1ccccc1N(CC(=O)N/N=C/c1cc(Br)c(C)o1)S(C)(=O)=O	-8.9%
CCOC(=O)N1CCC(n2c(SCC(=O)N3CCCC3)nc3ccccc3c2=O)CC1	-6.1%
CC(C)c1nc(SCC(=O)NCc2ccccc2)n[nH]1	-2.4%
Cc1cc(OCCN2CCCCC2)nc2ccccc12	0.2%
COc1ccc(/C=N/NC(=O)c2cccc(Br)c2)cc1CSc1ccccn1	u
CCOC(=O)c1ccc(NC(=O)c2cc3c(C)nn(-c4ccccc4Cl)c3s2)s1	u
COc1ccccc1N1CCN(Cc2cc(=O)n3ccsc3n2)CC1	-4.4%
CCn1cc(C(=O)N2CCOCC2)c(=O)c2cc(S(=O)(=O)N(C)C3CCCCC3)ccc21	-20.6%
Cc1cc(Cl)ccc1Oc1ncnc2oc(-c3ccccc3)cc12	u
COc1ccc(CN=C2NC(=O)CC(C(=O)Nc3cc(C)cc(C)c3)S2)cc1 (configuration not stated)	1.0%
Cc1cc2nnc(SCc3ccccc3)n2c(N)n1	-2.3%

Following part:
SMILES	HPGD inh
CCN1C(=O)/C(=C/N(C(C)=O)c2ccccc2)N(c2ccccc2)C1=S	-8.9%
CCN(CCCNC(=O)C1CCN(S(=O)(=O)N2CCC3(CC2)OCCO3)CC1)c1ccccc1	-6.4%
Cc1noc(C)c1C(=O)N1CCN(c2ncccn2)CC1	-12.7%
O=c1[nH]c(CSc2nnc(-c3cccnc3)n2C2CCCCC2)nc2ccccc12	-0.9%
Cc1ccc(Nc2nnc(SC(C)C(=O)Nc3c(C)n(C)n(-c4ccccc4)c3=O)s2)cc1 (configuration not stated)	-7.3%
COc1ccc(CN2C(=O)c3cccnc3C2Nc2cc(Cl)ccc2OC)cc1 (configuration not stated)	-4.9%
COC(=O)c1cc(Br)c(=O)n(Cc2ccc(C(=O)O)cc2)c1	-9.1%
COc1cccc(NC(=S)N(CCc2c(C)[nH]c3ccccc23)Cc2ccco2)c1	-11.4%
Oc1cccc(/C=N/NC(=S)Nc2cccnc2)c1O	31.6µM*
CC(=O)N1CCc2cc(S(=O)(=O)CCC(=O)Nc3ccc4c(c3)OCCO4)ccc21	-8.5%
O=C(/C=C/c1ccccc1)N1CCN(c2cccc(Cl)n2)CC1	-17.9%
Cc1ccc(S(=O)(=O)n2nc(-c3ccco3)nc2SCc2ccccc2)cc1	25.1µM*
CC(=O)C1=C(c2ccc(Br)cc2)C(=O)c2ccccc2C1=O	-5.7%
O=C(c1ccccc1)n1nc(-c2ccccc2)nc1NCc1ccco1	-11.8%
O=C(CN1CCCCC1)Nc1ccc(S(=O)(=O)NC2CCCCC2)cc1	-18.2%
CNC(=O)COC(=O)c1cccnc1SC	-12.6%
CCn1c2ccc(CC(=O)O)cc2c2cc(CC(=O)O)ccc21	u
CCCCNC(=O)c1sc2ncnc(N3CCc4ccccc4C3)c2c1C	-21.8%
Cc1cc(NC(=O)CSCCO)no1	1.5%
CCOC(=O)c1ccc(-c2ccc(CO)o2)cc1	u
Cc1cccc(N2CCN(C(=O)COc3cccc4c3OC(C)(C)C4)CC2)c1C	-20.1%
CCn1cc(C(=O)N2CCc3ccccc32)c(=O)c2cc(S(=O)(=O)N3CCOCC3)ccc21	0.8%
COCCn1c(=O)c(-c2ccc(OC)cc2)nc2cnc(Oc3cccc(Cl)c3)nc21	-19.2%
S=C(NCCN1CCOCC1)Nc1ccc(Br)cc1	-12.1%
CC(C)[C@H](NC(=O)c1ccccc1)C(=O)OCC(=O)Nc1ccc(Cl)cc1C(F)(F)F	-10.1%

Looked up by structure from above (6):
SMILES	HPGD inh
COc1cccc(NC(=S)N(CCc2c(C)[nH]c3ccccc23)Cc2ccco2)c1	-11.4%
O=C(/C=C/c1ccccc1)N1CCN(c2cccc(Cl)n2)CC1	-17.9%
COc1ccc(CN2C(=O)c3cccnc3C2Nc2cc(Cl)ccc2OC)cc1 (configuration not stated)	-4.9%
Cc1ccc(Nc2nnc(SC(C)C(=O)Nc3c(C)n(C)n(-c4ccccc4)c3=O)s2)cc1 (configuration not stated)	-7.3%
Cc1ccc(S(=O)(=O)n2nc(-c3ccco3)nc2SCc2ccccc2)cc1	25.1µM*
CCCCNC(=O)c1sc2ncnc(N3CCc4ccccc4C3)c2c1C	-21.8%

Molecules above that have an NH in an aromatic ring (4):
SMILES	HPGD inh
Cc1ccc2[nH]c(=O)c(CC=C(Cl)Cl)c(C)c2c1	-6.6%
CC(C)c1nc(SCC(=O)NCc2ccccc2)n[nH]1	-2.4%
O=c1[nH]c(CSc2nnc(-c3cccnc3)n2C2CCCCC2)nc2ccccc12	-0.9%
COc1cccc(NC(=S)N(CCc2c(C)[nH]c3ccccc23)Cc2ccco2)c1	-11.4%

Next records:
SMILES	HPGD inh
O=C(NCc1ccccc1)c1ccc2c(c1)C(=O)N(Cc1ccncc1)C2=O	-8.9%
O/N=C1/CCCCC1c1ccccn1 (configuration not stated)	-7.4%
Cc1cc(Cl)ccc1NC(=S)NCCN1CCOCC1	-6.6%
O=c1c2ccccc2ncn1-c1ccc2c(c1)OCCO2	-1.4%
COCCNC(=O)CN(C)S(=O)(=O)c1ccc2c(c1)OCCO2	-11.6%
Cc1c(C(=O)NC(C(C)C)C(C)C)cccc1[N+](=O)[O-]	-3.7%
Cc1ccc(C(=O)/C=C/c2cn(CC(O)CN3CCOCC3)c3ccccc23)cc1 (configuration not stated)	-7.7%
CC(=O)CCOC1CCCCO1 (configuration not stated)	-8.3%
O=C(CSc1ncn[nH]1)N1CCN(S(=O)(=O)c2ccccc2)CC1	-6.7%
COc1ccc(C2CC(c3cccs3)=Nc3ccccc3S2)cc1OC (configuration not stated)	-6.0%
CC(=O)Nc1ccc(S(=O)(=O)Nc2nccc(C3Cc4ccccc4C(=O)O3)n2)cc1 (configuration not stated)	0.0%
Cc1csc(C(C#N)C(=O)c2ccncc2)n1 (configuration not stated)	-6.5%
Cc1ccccc1-c1ccc(C=Nc2c(C)n(C)n(-c3ccccc3)c2=O)o1	-14.9%
O=C(OCc1cc2ccccc2[nH]c1=O)c1ccco1	-21.5%
CSc1nc(N)nc(SC2C=CCCC2)c1C#N (configuration not stated)	-18.7%
Cc1cc(N2CCCc3ccccc32)n2ncnc2n1	-9.8%
O=C(CC(=O)c1ccccc1O)c1cccc(F)c1	20µM*
CCCCC1=CC2=CC(=O)C(C)(OC(=O)c3cnc4ccccc4n3)C(=O)C2=CO1 (configuration not stated)	-1.8%
COC(=O)c1ccc(C2C(C(=O)Nc3ccccc3C)=C(C)Nc3ncnn32)cc1 (configuration not stated)	-3.1%
C=C(C)c1cccc(C(C)(C)NC(=O)Nc2cc(C)ccn2)c1	0.2%
O=C(CSC(=S)N1CCCCC1)Nc1nc(-c2ccccc2)c(-c2ccccc2)o1	-13.7%
Cc1noc(/C=C/N(C)C)c1S(=O)(=O)N1CCCC(C(=O)NCc2ccccc2Cl)C1 (configuration not stated)	-2.4%
O=C(O)CCCC(=O)N1CCc2cc(S(=O)(=O)N3CCc4ccccc43)ccc21	-21.5%
COCCn1nnnc1C(c1cc2cc(C)ccc2[nH]c1=O)N1CCN(C2CCCCC2)CC1 (configuration not stated)	u
O=C(CSc1nnc(-c2cccnc2)n1C1CCCCC1)NC1CCCC1	22.4µM*

Further entries follow:
SMILES	HPGD inh
NC(=O)[C@@H]1CCNc2c(I)cc([N+](=O)[O-])cc2C(=O)N[C@@H](CO)C(=O)N[C@@H](Cc2ccc(O)cc2)C(=O)N1	-17.4%
N#Cc1cc(-c2ccccc2)nnc1Sc1ccc(F)cc1	-2.8%
Cc1cccc(CSc2nnc(Cn3c(=O)sc4ccccc43)n2C)c1	-7.7%
CCOc1ccc2nc(NC(=O)CCC(=O)c3cccs3)sc2c1	-10.2%
CCC(C)n1c(C)nc2c(c1=O)c1nc3ccccc3nc1n2-c1ccc2c(c1)OCCO2 (configuration not stated)	-15.0%
CCOC(=O)C(=O)Nc1nnc(Cc2ccc(OC)c(OC)c2)s1	-17.1%
COc1ccc(NC(=O)CC(C)C)c(OC)c1	-6.2%
COc1ccccc1NS(=O)(=O)c1ccc2oc(SC3CCOC3=O)nc2c1 (configuration not stated)	-6.1%
CCOc1ccc(N2CC(O)Cn3c2nc2c3c(=O)n(CCCc3ccccc3)c(=O)n2C)cc1 (configuration not stated)	-14.5%
CCOC(=O)c1sc2cccc(Cl)c2c1N	-25.1%
O=C(Cc1ccccc1)Nc1ccc(NC(=O)c2cccs2)c(Cl)c1	-12.4%
Cc1nnc(SCC(=O)N2c3ccccc3C(C)(c3ccc(Cl)cc3)CC2(C)C)s1 (configuration not stated)	-5.4%
Brc1ccc(/C=N/Nc2ccccc2)cc1	u
CC(=O)Nc1ccc(NC(=O)CSc2ncnn2-c2ccccc2)cc1	-5.5%
Cc1cc(-c2ccccc2)c(C#N)c(SCC(N)=O)n1	-13.0%
O=S(=O)(Nc1ccc2c(c1)OCCO2)c1cccc2cccnc12	-12.1%
Cc1nc2c(C(=O)O)cnn2c(C)c1Cc1ccccc1F	u
CCOC(=O)N1CCN(C(=O)C2CC(=O)N(Cc3ccc(OC)cc3)C2)CC1 (configuration not stated)	-2.5%
CC1CCc2c(sc(N)c2C(=O)OC(C)C)C1 (configuration not stated)	28.2µM*
CCc1ccc(Nc2ncc3c(n2)CC(c2ccco2)CC3=O)cc1 (configuration not stated)	u
Cc1ccc(NC(=O)CN2C(=O)N/C(=C/c3ccco3)C2=O)cc1	-19.7%
Cc1cc(C)c(NC(=O)CO/N=C2\CCCc3nonc32)c(C)c1	-1.1%
CC1CCN(c2nc3c(c(=O)n(C)c(=O)n3C)n2CCSc2nc3ccccc3s2)CC1	-9.0%
COc1ccc(N2CCN(C(=O)c3sc4nc(-c5ccc(F)cc5)cn4c3C)CC2)cc1	u
Cn1c(/C(C#N)=C/C2CC=CCC2)nc2ccccc21 (configuration not stated)	-29.5%

(list continues)
SMILES	HPGD inh
COc1cc(C(=O)NNC(=O)NC2CCCCC2)cc(OC)c1OC	-0.7%
Cc1sc2nc(CN3CCCCC3)nc(Cl)c2c1C	u
O=c1c([N+](=O)[O-])c(N2CCCCCC2)c2ccccc2n1-c1ccccc1	-4.2%
CC(=O)NCCNc1nc(-c2ccccc2Cl)nc2ccccc12	-10.4%
CC(C)CC1NC(=O)N(CC(=O)c2ccc3c(c2)OCCO3)C1=O (configuration not stated)	-17.4%
CC(C)Cn1c(-c2ccccc2F)n[nH]c1=S	-23.6%
Cc1cccc(NC(=O)CCc2c(C)nc3ncnn3c2C)n1	-8.4%
CCc1nc2sc3c(c2c(=O)n1N)CC(C)(C)OC3	-0.7%
FC(F)(F)c1cnc(NNC(=S)Nc2ccc(Cl)cc2)c(Cl)c1	-24.6%
CCOC(Cn1c(CCCO)nc2ccccc21)OCC	-15.0%
O=S(=O)(N/N=C/c1ccc2c(c1)OCCO2)c1ccccc1	-19.5%
O=C(CN1CCN(c2ccc(F)cc2)CC1)N1N=CCC1c1ccccc1 (configuration not stated)	-4.8%
CN(C)C(=O)c1ccccc1Sc1cc(Cl)ccc1Cl	u
CCOC(=O)c1sc(C)c2c(=O)n(CC(=O)c3ccc(Br)cc3)nnc12	-7.2%
Cc1ccc(NC(=O)CSc2nnc(Cc3cccn3C)n2-c2ccc(F)cc2)cc1	-9.1%
O=C1C2C3C=CC(C3)C2C(=O)N1c1nccs1 (configuration not stated)	-12.1%
CCN(CC)c1ccc(NC(=O)CN2C(=O)CC(C)(C)S(=O)(=O)c3ccccc32)c(C)c1	-12.7%
COc1ccc(C(=O)/C=C/C(=O)N(Cc2ccc3c(c2)OCO3)C(C(=O)NC2CCCCC2)c2ccncc2)c(O)c1 (configuration not stated)	-14.3%
O=C(COC(=O)c1cc(Cl)ccc1Cl)NCCN1C(=O)CSC1=O	-15.2%
CCOC(=O)/C(C#N)=C\c1ccco1	-4.3%
C[C@@](O)(CNS(=O)(=O)c1ccccc1)c1ccccc1	-2.7%
COc1cccc(-c2nnc(SCC(=O)Nc3cc(C)on3)o2)c1	-12.1%
O=c1cc(-c2ccccc2Cl)oc2c(NS(=O)(=O)c3cc(Cl)cc(Cl)c3O)ccc(O)c12	4.47µM*
CC(C)OC(=O)c1c(NC(=O)c2cccs2)sc2c1CCCC2	u
CCSc1nc2ccccc2n1Cc1cccc([N+](=O)[O-])c1	u
COc1ccc(N2CCn3c2nc2c3c(=O)n(CCc3ccccc3)c(=O)n2C)cc1	u
CCc1c(C)sc(NC(=O)c2ccc(Br)o2)c1C(=O)OC	u

Reformatted with the structure last: part of the list above
HPGD inh	Compound
-10.4%	CC(=O)NCCNc1nc(-c2ccccc2Cl)nc2ccccc12
-17.4%	CC(C)CC1NC(=O)N(CC(=O)c2ccc3c(c2)OCCO3)C1=O (configuration not stated)
